Choline anaer gr = inhibitors of anaerobic choline-dependent gram-negative bacterial growth; Gram-negative bacterium anaerobic choline minimal medium, absorbance growth; active compounds read low; many inactives read as strong as hits in the columns shown; calls only; 55,000 tested, 0.2% active;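 active means growth z-score on choline under -2 at 7 or 20 h with little or no fall on glycerol, limits in tiers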;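 further: stock transfer was 300 nL into about 50 µL; the organism is E. coli; final concentration not given here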
Choline anaer gr early = further read-out of Choline anaer gr, marked with its call; z-score; measured here: choline growth z-score, timepoint 1;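 score of optical density at 7 h as mean of two plates; lower means less growth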
The depositor's hits bear a star; i = inactive. The list is partial (hit frequency here may not be typical).

SMILES | Choline anaer gr | Choline anaer gr early
COc1cccc(CNC(=O)CSc2ncc(-c3cccc(Cl)c3)o2)c1 | i | 1.1
Cc1ccc(S(=O)(=O)N2CCC3(CC2)NCCN=C3NC(C)(C)C)cc1C | i | -0.31
COc1ccc(CNS(=O)(=O)c2c(C)nn(-c3ccc(-c4ccc(C)cc4)nn3)c2C)cc1 | i | 0.99
CCC12CN3CC(CC)(CN(C1)C3c1ccc(C)cc1)C2O (stereo unspecified) | i | 1.3
CSc1nnc(-c2nn(C)c3c2CN(C(=O)C2CCC2)CC3)n1C | i | 0.48
CCc1nnc2ccc(C(=O)N[C@H](CC)CO)cn12 | i | -0.72
CCCS(=O)(=O)Nc1ccc2c(c1)CC(=O)N2CC | i | -1
CC(C)(C)c1csc(-c2csc(S(=O)(=O)Nc3cccc(Cl)c3F)c2)n1 | i | -0.33
Cc1[nH]c(-c2ccc(F)cc2)cc1C(=O)N1CC=C(c2ccccc2)CC1 | i | 0.14
CCOC(=O)c1c(C)n(-c2ccc(C)cc2)c2ccc(OCC(O)CN3CCN(C)CC3)cc12 (stereo unspecified) | i | 1.5
CC(C)c1cc(-c2nnc3sc(-c4ccncc4)nn23)n[nH]1 | i | -0.77
CC1CCN(S(=O)(=O)c2cc(-c3ccc(N4CCCC(C)C4)nn3)cs2)CC1 (stereo unspecified) | i | -1.4
CC1CCN(S(=O)(=O)N2CCCC(C(=O)NCCN3CCOCC3)C2)CC1 (stereo unspecified) | i | -0.35
C=CCNc1ncnc2c1cnn2-c1ccc(Cl)cc1 | i | 0.94
CC1CCN(S(=O)(=O)C2CCS(=O)(=O)C2)CC1 (stereo unspecified) | i | 0.85
Cn1c(=O)c2sccc2n2c(SCc3ccc(F)cc3)nnc12 | i | -0.3
COCCCN1C(=O)CSc2c(c(C)nn2-c2ccccc2)C1C(=O)NCc1ccccc1OC (stereo unspecified) | i | 0.22
CCSc1nn(CC(=O)Nc2ccccc2Cl)c(N)c1S(=O)(=O)c1ccccc1 | i | 0.39
CC1CCCN(C(=O)CCS(=O)(=O)c2ccc3c(c2)CC(C)N3C(=O)C2CC2)C1 (stereo unspecified) | i | 0.85
CCSc1nc2ccc(NS(=O)(=O)Cc3ccc(Cl)cc3)cc2s1 | i | 0.16
CC(=O)Nc1ccc(Nc2nc(C)cc(N(C)C)n2)cc1 | i | -0.27
Cc1noc2c1C(c1cccc(Br)c1)C1=C(CC(c3ccc(O)cc3)CC1=O)N2 (stereo unspecified) | i | -0.21
COc1cccc(NC(=O)C2CCN(c3cc(C)nc4cc(-c5ccc(C)cc5)nn34)CC2)c1 | i | -0.52
Cn1c(SCc2nc(-c3ccc(Cl)cc3)no2)nnc1-c1ccc2c(c1)OCCCO2 | i | 0.55
O=C(O)[C@H]1NCCC[C@H]1C(=O)O | i | -0.04
O=C(NCc1nc2cccnc2n1Cc1ccccc1)c1ccc(Cl)cc1 | i | -0.45
O=C(NCC1CCCO1)c1nnc(-c2ccc(S(=O)(=O)N3CCCC3)cc2)o1 (stereo unspecified) | i | -0.05
CCOc1ccc(NC(=O)C2CCCN(c3ccc4cc(S(=O)(=O)N5CCCC5)ccc4n3)C2)cc1 (stereo unspecified) | i | 0.8
Cc1cc(C)n2nc(N(Cc3c(F)cccc3Cl)S(=O)(=O)c3ccccc3)nc2n1 | i | 1.1
CCc1nnc(-c2cn(CC(=O)Nc3ccc(Br)cc3)c3ccccc23)o1 | i | 0.66
Cc1nc2cc(-c3ccccc3)nn2c(C)c1CCC(=O)Nc1cccnc1 | i | 1.1
Cc1cc(N(C)C)nc(Nc2ccc(NC(=O)CCC3CCCC3)cc2)n1 | i | 0.54
O=c1cc(CN2CCN(c3ncccn3)CC2)nc2sccn12 | i | -1
Cc1ccc2c(c1)Oc1cc(Cl)c(S(=O)(=O)N3CC(C)OC(C)C3)cc1C(=O)N2 (stereo unspecified) | i | 1.1
Cc1cc(C)cc(NC(=O)c2ccc3c(c2)NC(=O)CO3)c1 | i | -0.86
CC(=O)N1CCc2cc(S(=O)(=O)CCC(=O)Nc3ccc(F)cc3F)ccc21 | i | -0.32
OC(CN1CCN(c2ccccc2F)CC1)c1c[nH]c2ccc(F)cc12 (stereo unspecified) | i | -0.82
O=C(Nc1ccccc1)c1nnc(CCCC(=O)N2CCN(c3ccccn3)CC2)s1 | i | -0.55
O=C1C(Cl)=C(NCCN2CCOCC2)C(=O)c2ncccc21 | i | 0.23
COc1ccccc1N1CCN(C(c2ccc(Br)cc2)c2nnc(-c3ccccc3)o2)CC1 (stereo unspecified) | i | 0.87
O=C1CC(c2cccc(OCc3ccccc3)c2)c2cnn(-c3nc4ccccc4s3)c2N1 (stereo unspecified) | i | -0.42
CCOc1ccc(NC(=O)N2CCN(Cc3nc4ccc(Cl)cc4o3)CC2)cc1 | i | -0.22
COc1ccc2[nH]cc(CCNc3ccc(S(=O)(=O)c4ccc(C)c(C)c4)nn3)c2c1 | i | 1
Cn1cc(C(=O)NCc2ccccc2)c2[nH]c(=O)n(-c3ccccc3)c(=O)c21 | i | -0.36
CCN1CCC2(CC1)OC(=O)C(C)=C2C(=O)Nc1ccc2c(c1)OCCO2 | i | 0.56
Cc1cc(=O)c2cccc(C(=O)Nc3ccccc3)c2[nH]1 | i | -0.42
CCOc1ccccc1-c1cc(NC(=O)Cn2ncc3c(=O)oc4ccccc4c32)on1 | i | 0.5
CCSc1nccc2c1ccn2CC(=O)NCc1ccc(OC)c(OC)c1 | i | -1.6
CC1C[C@H]2[C@@H]3CCC4=CC(=O)C=C[C@]4(C)[C@]3(F)C(O)C[C@]2(C)[C@]1(O)C(=O)CO (stereo partly specified) | i | 0.31
Cc1ccc(C2=CC(c3ccc(F)cc3)n3nc(NS(C)(=O)=O)nc3N2)cc1 (stereo unspecified) | i | -1.1
COc1ccccc1NC(=O)c1cnc2sccn2c1=O | i | -0.13
NS(=O)(=O)c1ccc(CCNC(=O)CCn2cnc3c([nH]c4ccccc43)c2=O)cc1 | i | 0.13
COC(=O)c1cnc(N2CCCCC2C)c2ccccc12 (stereo unspecified) | i | 0.23
COCc1cnc2c(c1SCC(=O)OC)c(=O)n(C)c(=O)n2C | i | -0.98
CCSc1nc2c(c(=O)[nH]1)C(c1ccc(O)c(O)c1)CC(=O)N2 (stereo unspecified) | i | -0.17
CC(C)c1ccc(C(=O)N2CCN(c3ccnc(-c4cccc(F)c4)n3)CC2)cc1 | i | 0.32
CCc1cc(C(Nc2cc(C)ccn2)c2ccc3c(c2)OCO3)c(NC(=O)c2ccccc2)s1 (stereo unspecified) | i | 0.64
Cc1cccc(-c2nccc(N3CCC(C(=O)NCCC(C)C)CC3)n2)c1 | i | 0.13
Cc1ccc(-c2nc(C3CCN(S(=O)(=O)c4ccc(F)cc4)CC3)no2)cc1 | i | 0.28
CCCCCCCCCCCCCCCC(=O)OCC(O)[C@H]1OC(=O)C(O)=C1O (stereo partly specified) | i | 0.18

An excerpt of these results, as tab-separated lines:
Compound	Choline anaer gr	Choline anaer gr early
CCOc1ccc(NC(=O)N2CCN(Cc3nc4ccc(Cl)cc4o3)CC2)cc1	i	-0.22
COc1ccc2[nH]cc(CCNc3ccc(S(=O)(=O)c4ccc(C)c(C)c4)nn3)c2c1	i	1
Cn1cc(C(=O)NCc2ccccc2)c2[nH]c(=O)n(-c3ccccc3)c(=O)c21	i	-0.36
CCN1CCC2(CC1)OC(=O)C(C)=C2C(=O)Nc1ccc2c(c1)OCCO2	i	0.56
Cc1cc(=O)c2cccc(C(=O)Nc3ccccc3)c2[nH]1	i	-0.42
CCOc1ccccc1-c1cc(NC(=O)Cn2ncc3c(=O)oc4ccccc4c32)on1	i	0.5
CCSc1nccc2c1ccn2CC(=O)NCc1ccc(OC)c(OC)c1	i	-1.6
CC1C[C@H]2[C@@H]3CCC4=CC(=O)C=C[C@]4(C)[C@]3(F)C(O)C[C@]2(C)[C@]1(O)C(=O)CO (stereo partly specified)	i	0.31
Cc1ccc(C2=CC(c3ccc(F)cc3)n3nc(NS(C)(=O)=O)nc3N2)cc1 (stereo unspecified)	i	-1.1
COc1ccccc1NC(=O)c1cnc2sccn2c1=O	i	-0.13
NS(=O)(=O)c1ccc(CCNC(=O)CCn2cnc3c([nH]c4ccccc43)c2=O)cc1	i	0.13
COC(=O)c1cnc(N2CCCCC2C)c2ccccc12 (stereo unspecified)	i	0.23
COCc1cnc2c(c1SCC(=O)OC)c(=O)n(C)c(=O)n2C	i	-0.98
CCSc1nc2c(c(=O)[nH]1)C(c1ccc(O)c(O)c1)CC(=O)N2 (stereo unspecified)	i	-0.17
CC(C)c1ccc(C(=O)N2CCN(c3ccnc(-c4cccc(F)c4)n3)CC2)cc1	i	0.32

(list continues)
SMILES | Choline anaer gr | Choline anaer gr early
Cc1cccc(-c2nccc(Nc3cccc(C(=O)NC4CCCCC4)c3)n2)c1 | i | 0.73
Cc1ccc2occ(CC(=O)Nc3cccnc3)c2c1 | i | -0.86
CCn1c(=O)c(N2CCC(C(=O)NCCN3CCOCC3)CC2)nc2ccccc21 | i | 0.26
Cc1ccccc1CSc1nnc2n(CCC(=O)NC(C)C)c(=O)c3ccccc3n12 | i | -0.44
O=C(NC1CC1)c1cccc(-c2noc(C3CCC3)n2)c1 | i | -0.18
CCCCCCCCCCCCCCC[C@@H](O)[C@H](CO)NC(C)=O | i | 0.08
O=C(CN1C(=O)c2ccccc2C1=O)Nc1ccc2c(c1)C(=O)Nc1ccccc1O2 | i | 2.6
COc1ccc2oc(C)c(C(=O)Nc3ccccc3Cl)c2c1 | i | -0.29
Cc1ccc(-c2nnc3n(C(C)C)c4c(=O)[nH]c(=O)n(C)c4n23)cc1 | i | -2.2
N#C/C(=C/c1ccc(O)c(O)c1)C(=O)OC/C=C/c1ccccc1 | i | 0.1
O=C(Nc1ccc(F)c(Cl)c1)c1cc(-c2cccnc2)on1 | i | 0.13
COC(=O)c1c(NC(=O)c2ccc(S(=O)(=O)N3CCCC3)cc2)sc2c1CCN(C(C)C)C2 | i | -0.12
CCCN1C(=O)CC(C)Nc2ccccc21 (stereo unspecified) | i | -1.7
Cn1nc(-c2ccc(Cl)cc2)c2cc(C(=O)O)sc21 | i | -0.31
Cc1cc(NC(=O)CCc2nc(CSc3nc4ccccc4s3)no2)ccc1Br | i | 0.01
COc1ccccc1OC(=O)c1sc2ccccc2c1Cl | i | 0.58
O=C(Nc1cccnc1)c1nc(-n2cnnc2)ccc1Br | i | -2.2
Nc1c(-c2nnc(SCC(=O)N3CCOCC3)n2CC2CCCO2)sc2ncccc12 (stereo unspecified) | i | -0.73
O=c1ccc(N2CCCN(S(=O)(=O)c3ccccc3)CC2)nn1-c1ccccc1 | i | 0.74
Cc1nc2ccc(C(=O)O)cc2nc1C | i | -0.54
CCOc1ccc(NC(=O)c2cccc(Nc3cnc4ccccc4n3)c2)cc1 | i | -0.48
Cc1cc(C)c(CNS(=O)(=O)c2cc(-c3nc(C)c(C)s3)cs2)c(C)c1 | i | -1.3
O=C(c1cccc(Cn2c(=O)c3cccn3c3cccnc32)c1)N1CCN(c2ccccn2)CC1 | i | -0.07
CC1CCN(C(=O)CN2C(=O)C3CCCN3C(=O)c3ccc(F)cc32)CC1 (stereo unspecified) | i | -1.3
CC(C)Sc1nc2c(cnn2-c2ccc(F)cc2)c(=O)[nH]1 | i | -0.69
O=C(COc1ccccc1Cl)NCC(c1ccccc1)c1c[nH]c2ccccc12 (stereo unspecified) | i | 0.44
CCCCC(=O)Nc1ccc2c(c1)nc(CN1CCN(C)CC1)n2CC | i | -1.1
CCc1ccc(-c2cn3nc(N4CCC(C(=O)NC5CCCC5)CC4)sc3n2)cc1 | i | 0.56
O=C1C(=O)N(C2CCN(S(=O)(=O)c3ccc(Cl)cc3)CC2)CCN1Cc1ccccc1 | i | 1.2
O=C(NC1CCCCC1)N1CCc2cc(S(=O)(=O)Nc3ccc(F)cc3F)ccc21 | i | 1
O=C1COc2ccc(S(=O)(=O)N3CCN(C(=O)c4ccc(F)cc4)CC3)cc2N1 | i | 0.08
CCOc1ccc(NC(=O)N2CCN(c3cnccn3)CC2)cc1 | i | -0.19
COc1ccccc1CNC(=O)C1c2c(C)nn(-c3ccccc3)c2SCC(=O)N1c1ccc2c(c1)OCO2 (stereo unspecified) | i | 1
COc1ccc(-c2nn3c(N4CCCCC4)cc(C)nc3c2C)cc1OC | i | 4.4
CC(C)CCn1c(=O)c2ccccc2n2c(=O)n(CC(=O)N3CCN(c4ccccc4F)CC3)nc12 | i | 1
COc1ccc(-c2cc(C(=O)Nc3cccc4nsnc34)c3ccccc3n2)cc1 | i | 0.03
COC(=O)c1cc(S(=O)(=O)N2CC=C(c3ccccc3)CC2)cn1C | i | -0.94
CCOc1cc(-c2cccc(OC)c2)nc2ccc(C(=O)NCc3ccc(Cl)cc3)cc12 | i | -0.09
Cc1cc2c(cc1S(=O)(=O)N1CCC(C(=O)N3CCCCC3)CC1)OCC(=O)N2 | i | -0.42
CCc1ccc(-n2c(=O)c3cccnc3n2CC(=O)NC(C)CCc2ccccc2)cc1 (stereo unspecified) | i | 1.9
Cc1nc(-c2csc(S(=O)(=O)N3CCN(c4ccc(Cl)cc4)CC3)c2)sc1C | i | 0.64
O=C(c1cn(-c2cccc(F)c2)nn1)N1CCCCC1 | i | 0.82
CN1CCN(C(CNC(=O)c2ccc(Br)cc2)c2ccc(N(C)C)cc2)CC1 (stereo unspecified) | i | 1.1
Cc1ccc(-c2nc(C(N)=O)c3c(n2)n(-c2ccc(C)c(C)c2)c(=O)n3C)cc1 | i | -0.56
CNC(=O)c1cc2cc3ccc(Cl)cc3nc2o1 | i | -0.81
CN(C)S(=O)(=O)N1CCC(c2ccncc2)CC1 | i | -0.22
O=C(Nc1ccccc1)c1nnc(COCC(=O)N2CCN(c3cccc(Cl)c3)CC2)s1 | i | -0.22
